Screens deposited in PubChem by National Center for Advancing Translational Sciences (NCATS).
B2AR arrestin = qHTS assay of beta-arrestin-biased ligands of beta2-adrenergic receptor | 330,000 tested, 0.02% active | AID 492947, 2010 | beta-arrestin recruitment to beta2AR, cell-based reporter | Potency, µM (highest dose often 46.1 µM), for the others: at the highest dose activation, actives largely listed as activators;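 also: potency is read from the fitted curve at half-maximal effect; 0% = DMSO controls and full agonism = EC100 isoproterenol or metaproterenol; nearly all actives have a fitted effect of over 65% in size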
PTAP TSG101 blk = qHTS Assay for Iinhibitors of HIV-1 Budding by Blocking the Interaction of PTAP/TSG101; AID 493005, 2010; Potency, µM (top dose mostly 115 µM), inactives show at the top dose activity change, negative = inhibition, usual class: inhibitors; Tumor susceptibility gene 101 protein (Homo sapiens), Q99816; Fluorescence polarization, FITC-PTAP peptide / Tsg101 binding; 340,000 tested, under 10 active; active = well fitted inhibition curve with a large enough effect in the main read-out, with a control signal flat, not every such curve was filed as active; inconclusive = small, poorly fitted or top-dose-only effect, or effect the other way, or a change in a side signal; inactive = no such curve, though single readings can be large or run the other way; also: potency is read from the fitted curve at half-maximal effect; % of control where 0% means no effect
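Steps: Tsg101 binding domain dispensed (10 uM final), compounds pinned in DMSO, FITC-labeled PTAP-motif peptide added (50 nM final); after 20 min binding at room temperature, polarization measured.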
TRPV1 agonist = HTS Assay for Compounds that Act as Agonists of the Vanilloid Receptor 1. TRPV1-expressing cells, Fluo-8 calcium influx, agonist mode. Transient receptor potential cation channel subfamily V member 1 (Homo sapiens), Q8NER1. activation, % at 8.33 µM. 320,000 tested, 0.19% active; in the data active = activation above about 80%; inconclusive = between about 30% and that limit; also: 0% is about no effect
Target sequence (Q8NER1 whole entry, looked up): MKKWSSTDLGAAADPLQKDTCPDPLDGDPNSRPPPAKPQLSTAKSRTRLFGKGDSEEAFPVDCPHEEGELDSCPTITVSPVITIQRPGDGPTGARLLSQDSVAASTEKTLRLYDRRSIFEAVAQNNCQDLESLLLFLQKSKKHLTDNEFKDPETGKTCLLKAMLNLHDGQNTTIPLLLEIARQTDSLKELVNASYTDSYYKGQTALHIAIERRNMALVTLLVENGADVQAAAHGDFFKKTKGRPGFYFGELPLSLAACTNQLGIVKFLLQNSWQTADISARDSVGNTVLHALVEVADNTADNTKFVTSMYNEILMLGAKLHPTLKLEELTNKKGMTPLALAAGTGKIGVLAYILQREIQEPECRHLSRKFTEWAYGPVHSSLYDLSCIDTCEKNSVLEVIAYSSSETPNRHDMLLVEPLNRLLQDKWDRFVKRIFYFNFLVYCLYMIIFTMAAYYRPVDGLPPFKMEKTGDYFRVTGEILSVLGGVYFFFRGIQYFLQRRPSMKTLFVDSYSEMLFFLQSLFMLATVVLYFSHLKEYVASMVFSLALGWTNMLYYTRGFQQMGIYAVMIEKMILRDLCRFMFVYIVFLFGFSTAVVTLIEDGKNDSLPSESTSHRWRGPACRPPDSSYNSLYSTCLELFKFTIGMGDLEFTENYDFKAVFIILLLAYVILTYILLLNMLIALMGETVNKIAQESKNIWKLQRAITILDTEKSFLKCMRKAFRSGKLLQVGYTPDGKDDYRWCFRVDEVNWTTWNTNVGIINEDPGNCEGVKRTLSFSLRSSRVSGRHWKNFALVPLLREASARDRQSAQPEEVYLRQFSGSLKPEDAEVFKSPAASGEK
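Cells expressing TRPV1 were dye-loaded with Fluo-8 and read kinetically: 10 s baseline, 3 min after compound (agonist portion), then 2 min after EC20 capsaicin (allosteric enhancer portion). Calcium-bound dye fluorescence at 480/520 nm.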
BRCA1 expr act = qHTS Assay to Identify Small Molecule Activators of BRCA1 Expression | MCF7-BRCA1-FFLuc reporter, luminescence, 48 h; response scale: scaled: vehicle 0%, 10 µM genistein 100% | Potency, µM (highest dose often 46.1 µM), inactives show at the highest dose activation, most hits filed as activators | 380,000 tested, 1.1% active | AID 624202, 2012; also: potency is read from the fitted curve at half-maximal effect; nearly all actives have a fitted effect of over 80% in size; some results filed as inactive show a strong effect at the top dose
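Quantitative HTS in MCF7 cells stably reporting BRCA1 expression via firefly luciferase. Compound treatment lasts 48 h at 37 °C in phenol-red free MEM. Activation is expressed relative to genistein at 10 microM and DMSO.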
TCR act = Activators of T cell receptors: qHTS campaign. 330,000 tested, under 10 active. AID 504894, 2011. Potency, µM (series often up to 9.22 µM), for inactives: at the highest dose activation of IL-2 secretion, actives largely listed as activators. primary human leukocytes, anti-CD3, IL-2 HTRF, 48 h; also: % of control where 0% means no effect
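Primary human leukocytes incubated 48 hr with anti-CD3 beads plus compound, without co-stimulation. Secreted IL-2 measured by HTRF (europium cryptate/d2 anti-IL-2 pair, 320 nm excitation, 665 nm emission).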
a7 integrin act = qHTS for Activators of Integrin-Mediated Alleviation for Muscular Dystrophy; alpha7betagal myoblasts, beta-gal FDG fluorescence, 48 h; Potency, µM (top dose mostly 38.3 µM), for inactives: at the highest dose activation, usual class: activators; 350,000 tested, 0.064% active; AID 624291, 2012;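 also: potency is read from the fitted curve at half-maximal effect; 100% = response of the positive control SU9516; nearly all actives have a fitted effect of over 60% in size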
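alpha7betagal+/- myoblasts (passage 13, 250/well) treated 48 h at 37C with compounds at 1:260 dilution of DMSO stock. Lysed, then beta-galactosidase activity read as FDG fluorescence (ex 480/em 540) after 30 min, with pre-read for autofluorescence.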
MLL CXXC-DNA inh = qHTS Fluorescence Polarization Assay for Inhibitors of MLL CXXC domain - DNA interaction | Potency, µM (series often up to 115 µM), inactives show at the highest dose activity change, negative = inhibition, hits mostly inhibitors | MLL-CXXC / FITC-HOXA9 DNA fluorescence polarization | Histone-lysine N-methyltransferase 2A (Homo sapiens), Q03164 | 290,000 tested, 0.037% active; active = well fitted inhibition curve with a large enough effect in the polarisation, with a control signal flat, not every such curve was filed as active; inconclusive = small, poorly fitted or top-dose-only effect, or effect the other way, or a change in a side signal; inactive = no such curve, though single readings can be large or run the other way; the % refers to the polarisation; also: potency is read from the fitted curve at half-maximal effect
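Steps: dispense CXXC domain solution (7 uM) → pin compounds or unlabeled HOX-A9 DNA control → 5 min ambient → add FLSN-HOX-A9 solution (50 nM) → spin → 30 min ambient → fluorescence polarization. Tris pH 7.5/NaCl/DTT/BSA buffer.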
AT treatment = qHTS Assay for Identifying a Potential Treatment of Ataxia-Telangiectasia; […] A-T fibroblasts, KAP-1 phosphorylation AlphaLISA; neocarzinostatin DNA damage 30 min before lysis; Potency, µM (top dose mostly 57.5 µM), for the others: top-dose activation, usual class: activators; 320,000 tested, 0.19% active; also: potency is read from the fitted curve at half-maximal effect; % of control where 0% means no effect; nearly all actives have a fitted effect of over 45% in size
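ATM-like activity read as KAP-1 phosphorylation via AlphaLISA donor/acceptor antibody pairs after lysis and 6 hr at 25C. Cells were ATM-null patient fibroblasts ([…], hTERT), dosed 60 min, then exposed to the DSB inducer NCS for 30 min.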
ELG1 repair inh = qHTS screen for small molecules that inhibit ELG1-dependent DNA repair in human embryonic kidney (HEK293T) cells expressing luciferase-tagged ELG1; HEK293T ELG1-luciferase reporter, luminescence, 16 h; DNA damage induced by 5-fluorouridine; AID 504467, 2011; 330,000 tested, 2.3% active; Potency, µM (doses to about 46.1 µM), without a hit: at the highest dose activity change, negative = inhibition, usual class: inhibitors; also: potency is read from the fitted curve at half-maximal effect; % is scaled to controls: 0 for no effect and ±100 for the full control effect; nearly all actives have a fitted effect of over 55% in size
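In this reporter screen, reduction of luminescence relative to DMSO vehicle indicated activity. Compounds and 5-fluorouridine were added together to 2,000 cells per well, incubated for 16 hr at 37 °C, then developed with ONE-Glo.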
Active calls of the source: *; u = inconclusive; x = no result given; & = joins results of further samples; [ ] = dose if it differs, or a comment. Unless noted, calls follow the shape of the dose curve; as a rule, active = well fitted curve in the direction sought with a large enough effect; inconclusive = small, poorly fitted or top-dose-only effect, or another doubt; inactive = no such curve, though single readings can be large; an effect the other way counts as inactive or inconclusive.

Compound | B2AR arrestin | PTAP TSG101 blk | TRPV1 agonist | BRCA1 expr act | TCR act | a7 integrin act | MLL CXXC-DNA inh | AT treatment | ELG1 repair inh
CN(C)CCCO[C@H]1C([C@H](O)CO)O[C@@H]2OC(C)(C)O[C@@H]21 (stereo partly drawn) | x | x | x | x | x | x | -1% | x | x
c1ccc2[nH]c(-c3cscn3)nc2c1 | 0.2% | -11% | 1 | 11µM* | -4% | x | -1% | 9% | u
CC(=O)OCC(=O)[C@@]1(O)CC[C@H]2[C@@H]3CCC4=CC(=O)C=C[C@]4(C)[C@H]3[C@@H](O)C[C@@]21C | -0.9% | -1% | 1 | 0% | -2% | x | 12% | 14% | 18%
COc1ccc2c(c1)c1c3n2CCN(C)C3=NCC1 | -0.1% | -3% | -1 | 25% | -4% | -36% | 2%&-2% | 10% | 3%
CCCCOc1ccc(-c2nnc(-c3cc[n+](C)cc3)o2)cc1 | -1.1% | -3% | 0 | -19% | 1% | 3% | 14% | -5%[11.5 µM] | -15%
COc1ccc(/C=C/c2cc(-c3ccc(C)cc3)o[n+]2C)cc1 | -0.2% | 0% | -1 | -96%[inhibitor] | -2% | -46%[inhibitor] | u | 11% | u
CCN(CC)C(=O)c1ccc(O)c(OC)c1 | -0.5% | 0% | 1 | 30% | -4% | x | -3% | -3% | -4%
Nc1ccccc1Nc1ccccc1 | -0.3% | -4% | 6 | -23% | -14% | 4% | -8% | -2% | -11%
COc1ccc(CC(N)C(=O)NC2C(CO)OC(n3cnc4c(N(C)C)ncnc43)C2O)cc1 (stereo not drawn) | x | x | x | x | x | x | 12% | x | x
CCC1(c2ccccc2)C(=O)NCNC1=O | -1.1% | -1% | -2 | -15% | -7% | x | 7%&3% | 0% | 12%
CCN1C(=O)N[C@@H](c2ccccc2)C1=O | x | x | x | x | x | x | 8%[51.4 µM] | x | x
c1cc(CCCc2ccncc2)ccn1 | -0.2% | -8% | 2 | -1% | 10% | 0% | x | 2% | 3%
C/C(C=O)=C/c1ccccc1 | -0.1% | -1% | 0 | 9% | -10% | x | x | 3% | 14%
CC(=O)Nc1c(I)c(C(=O)N[C@H]2C(O)O[C@H](CO)[C@@H](O)[C@@H]2O)c(I)c(N(C)C(C)=O)c1I (stereo partly drawn) | -0.3% | 1% | -2 | -6% | 3% | x | x | 20% | 15%
CN(C)/N=N/c1nc[nH]c1C(N)=O | x | x | x | x | x | x | -4% | x | x
C[C@]12CCC(=O)C=C1CC[C@@H]1C2[C@@H](O)C[C@@]2(C)[C@H]1CC[C@]2(O)C(=O)CO (stereo partly drawn) | x | x | x | x | x | x | -8% | x | x
Nc1c(-c2ccccc2)sc2ccc3ccccc3[n+]12 | -0.7% | -1% | -1 | 40% | -3% | -30% | 2% | 15% | u
O=C(O)/C=C/c1cnc[nH]1 | -1.8% | 2% | 0 | 0% | 5% | x | -6%&3% | -4% | 0%
Oc1ccc(Br)cc1/C=N/N1CCCCC1 | -0.2% | 2% | 5 | u | -3% | -15% | 6% | -1% | u
OC(CCN1CCCCC1)(c1ccccc1)C1CCCCC1 (stereo not drawn) | -0.3% | 2% | 5 | 8% | -9% | x | 2%&1%&-4% | -20% | -6%
C=C(NC(=O)C(=C)NC(=O)c1csc(C2=N[C@@H]3c4csc(n4)[C@@H]4NC(=O)c5csc(n5)[C@@H]([C@](C)(O)[C@H](C)O)NC(=O)[C@@H]5CSC(=N5)/C(=C/C)NC(=O)[C@@H]([C@H](C)O)NC(=O)c5csc(n5)[C@]3(CC2)NC(=O)[C@@H](C)NC(=O)C(=C)NC(=O)[C@@H](C)NC(=O)[C@@H]([C@@H](C)CC)N[C@H]2C=Cc3c([C@H](C)O)cc(nc3[C@@H]2O)C(=O)O[C@H]4C)n1)C(N)=O | x | x | x | x | x | x | -3%[51.4 µM] | x | x
O=c1[nH]cnc2[nH]ncc12 | 0.6% | -2% | 1 | -1% | -8% | x | -11%&15% | -21% | 10%
CN(CCO)CC(O)Cn1cnc2c1c(=O)n(C)c(=O)n2C (stereo not drawn) (tested in a mixture with another compound) | -0.2% | -2% | -1 | -23% | -11% | x | 8% | -2% | -1%
Cc1ccc2ccc3cccc4ccc1c2c34 | -0.1% | 0% | 2 | -13% | 1% | x | x | 26% | 0%
CN1CCc2c(c3c(n2C)CCN(C)[C@@H]3c2cccnc2)[C@H]1c1cccnc1 | 0.0%&0.4% | -2% | 2&3 | -1% | -2% | -1% | -11%&-4% | -9%&-14% | 0%&20%
CCc1ccc2oc(-c3ccc(OC)cc3)cc(=Nc3cccc(C(=O)O)c3)c2c1 | 0.3% | -4% | u | -18% | 1% | -10% | 10% | 1% | u
CSc1ccc(C=O)cc1 | 0.1% | 0% | 1 | -8% | 2% | x | x | -4% | u
Brc1cc(Br)c(Oc2cc(Br)c(Br)cc2Br)cc1Br | -2.4% | 0% | -1 | 3% | 3% | x | x | -5% | 11%
Cn1sccc1=O | -0.1% | -2% | 4 | 8% | 2% | x | x | 19% | 0%
Nc1nc(N)nc(-c2ccccc2)n1 | 0.0% | 0% | 2 | 16% | 2% | -13% | 4% | 1% | 10%

A draw from above in order of number of heavy atoms, low to high.
Compound | B2AR arrestin | PTAP TSG101 blk | TRPV1 agonist | BRCA1 expr act | TCR act | a7 integrin act | MLL CXXC-DNA inh | AT treatment | ELG1 repair inh
O=c1[nH]cnc2[nH]ncc12 | 0.6% | -2% | 1 | -1% | -8% | x | -11%&15% | -21% | 10%
Nc1nc(N)nc(-c2ccccc2)n1 | 0.0% | 0% | 2 | 16% | 2% | -13% | 4% | 1% | 10%
Cc1ccc2ccc3cccc4ccc1c2c34 | -0.1% | 0% | 2 | -13% | 1% | x | x | 26% | 0%

Further results.
Compound | B2AR arrestin | PTAP TSG101 blk | TRPV1 agonist | BRCA1 expr act | TCR act | a7 integrin act | MLL CXXC-DNA inh | AT treatment | ELG1 repair inh
CCN(CC)CC#CCOC(=O)C(O)(c1ccccc1)C1CCCCC1 (stereo not drawn) | -1.2% | -4% | 4 | 2% | -7% | x | 7%&-10% | 24% | 0%
O=C1NC(=O)C(c2ccccc2)(c2ccccc2)N1 | -0.2%&-0.9%&-0.3% | 2%&2% | 2&-1&-6 | 14%&-3% | 2%&3% | x | 0%&-6%&1%&5% | 14%&7%&-12% | 2%&2%&0%
Nc1ncn(C2C[C@H](O)[C@@H](CO)O2)c(=O)n1 (stereo partly drawn) | x | x | x | x | x | x | 0% | x | x
NCCCN1CCOCC1 | -0.2% | -5% | 3 | 1% | -7% | u | -2% | -2% | 1%
Cc1c(N)c(=O)n(-c2ccccc2)n1C | 0.0% | 0% | 0 | 0% | -15% | x | x | 16% | 12%
CCN[C@H]1C[C@H](C)S(=O)(=O)c2sc(S(N)(=O)=O)cc21 | 0.4% | -4% | -2 | -6% | -3% | x | x | 2% | -4%
O=C(Nc1ccccc1)OCC(CN1CCCCC1)OC(=O)Nc1ccccc1 (stereo not drawn) | -0.1% | 1% | 18 | -26% | 6% | x | x | -5% | -8%
Cc1ccc(-c2csc(Nc3ccccc3)[n+]2CCc2ccccc2)cc1 | 0.1% | -4% | 4 | -4% | 12% | 24% | -1% | 0% | -15%
O=C(O)c1ccc(O)c(O)c1 | 3.7% | 1% | -1 | -2% | -5% | 3% | -4% | -15% | 19%
CN(C)CCCOC1C(C(O)CO)OC2OC(C)(C)O[C@@H]21 (stereo partly drawn) | x | x | x | x | x | x | 1% | x | x
Cc1cn([C@H]2C=C[C@@H](CO)O2)c(=O)[nH]c1=O | 0.0%&0.1%&-0.4% | -5%&-3% | 1&0&2 | 0%&10% | -2%&13% | x | -2%&-7%&9%&-6% | 6%&1% | u
Cc1ccc(Cl)c(Nc2ccccc2C(=O)O)c1Cl | -0.9%&2.8% | 0%&-2% | -2 | -28%&20% | -4%&-1% | x | 2%&-7%&-1% | -14%&-1% | -8%&-8%
CC(O)CC(C)O (stereo not drawn) | -0.3% | -2% | 1 | -7% | 2% | x | x | -3% | 5%
CN1CCCCC1CCN1c2ccccc2Sc2ccc(S(C)=O)cc21 (stereo not drawn) | -0.5%&0.0% | 2% | 7 | 0% | 0% | x | -8%&-5% | -7% | 12%
COc1cccc(N=CC=C2OC(C)(C)C(C)(C)O2)c1 | -0.2% | -1% | -1 | 74% | x | 18% | 6% | -3% | u
O=C(c1ccccc1)C(O)c1ccccc1 (stereo not drawn) | -2.2% | -1% | 2 | -5% | 0% | x | -15% | -6% | 8%

This is a subset; count on the stated rates, not on these rows.
